VDR inhibitor = Inhibitors of the vitamin D receptor (VDR): qHTS. Potency, µM, without a hit: max response, negative = inhibition, most hits filed as inhibitors. Vitamin D3 receptor (Homo sapiens), P11473. VDR-SRC2-3 peptide fluorescence polarization, 2 h. 0.93% of 400,000 active; active means well fitted inhibition curve with a large enough effect; inconclusive means small, poorly fitted or top-dose-only effect, or another doubt; inactive means no such curve, though single readings can be large or run the other way; further: series mostly up to about 120 µM
Target sequence (P11473 whole entry, looked up): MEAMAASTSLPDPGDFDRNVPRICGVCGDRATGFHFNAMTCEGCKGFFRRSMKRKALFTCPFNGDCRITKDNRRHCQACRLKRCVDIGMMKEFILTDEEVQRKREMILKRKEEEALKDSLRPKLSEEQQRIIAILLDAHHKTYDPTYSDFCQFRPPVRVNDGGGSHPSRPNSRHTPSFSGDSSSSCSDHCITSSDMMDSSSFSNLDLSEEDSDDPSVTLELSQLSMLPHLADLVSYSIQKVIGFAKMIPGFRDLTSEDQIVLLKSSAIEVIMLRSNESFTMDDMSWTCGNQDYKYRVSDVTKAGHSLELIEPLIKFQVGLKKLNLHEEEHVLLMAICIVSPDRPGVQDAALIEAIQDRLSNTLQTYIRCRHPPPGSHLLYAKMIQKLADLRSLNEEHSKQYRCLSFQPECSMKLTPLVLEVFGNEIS
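VDR–SRC2-3 interaction, FP format. Cmpds 23 nl via pintool, brief spin, 2 h ambient incubation.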
Starred values were filed as active, the others as inactive; ? = inconclusive; & = joins results of further samples; [ ] = another dose, or the depositor's remark. On the % scale 0 is the no-effect control and ±100 the full control effect; potency means the concentration at half of the fitted maximal effect.

SMILES | VDR inhibitor
CCOc1ccccc1NC(=O)CSc1nc2ccccc2nc1N1CCCC1 | -11%
O=C(CCCCCNC(=O)c1ccccc1)N/N=C/c1ccco1 | -9%
Cc1ccc(-n2nc(C)c3c(C(F)(F)F)cc(-c4cccnc4)nc32)cc1C | 9%
CCc1ccc(NC(=O)C2CCCN(S(=O)(=O)c3ccc(F)cc3)C2)cc1 (configuration not stated) | 10%
CCC(C)c1ccc(C2C3=C(Nc4nc(N)[nH]c(=O)c42)c2ccccc2C3=O)cc1 (configuration not stated) | -6%
COc1ccc(CN(CC2CCCO2)C(=O)CN2C(=O)COc3ccccc32)cc1OC (configuration not stated) | 4%
N/C(=N\OC(=O)CCn1cccc(C(F)(F)F)c1=O)c1ccc(Cl)cc1 | -4%
O=C1CCC(C(=O)OCc2nnc(-c3ccc(Cl)cc3)o2)=NN1 | 2%
O=C(CCNC(=O)C1CCN(S(=O)(=O)c2ccc(F)cc2)CC1)NC1CC1 | -6%
CS(=O)(=O)N(CC(=O)Nc1cccc([N+](=O)[O-])c1)c1ccccc1 | -1%
Cc1nn(-c2ccccc2)c(C)c1C(=O)OCC(=O)Nc1ccccc1F | -12%
CCOc1ccc(C(=O)N(Cc2ccc(C(C)C)cc2)Cc2ccco2)cc1 | -3%
O=C(NC1CCCC1)C(c1ccccc1)N(C(=O)c1csnn1)c1ccccc1F (configuration not stated) | -10%
CCOc1ccc(N(CC)S(=O)(=O)c2ccc3c(c2)n(C)c(=O)c(=O)n3C)cc1 | -15%
Cc1ccc(C(=O)OCC(=O)c2c(N)n(C)c(=O)n(C)c2=O)cc1S(=O)(=O)N1CCOCC1 | 17%
CCCCC(=O)Oc1c(S(=O)(=O)c2ccc(C)cc2)c(C)nn1C(C)(C)C | 0%
COc1cc(NC(=O)C(CC(C)C)NS(=O)(=O)c2ccc3c(c2)CCCC(=O)N3)cc(OC)c1 (configuration not stated) | 4%
COc1ccc(C2=CC(=O)C[C@H](c3ccc(OC)cc3)C2)cc1 | -11%
C#CCn1c(-c2cccs2)nc2ccccc21 | 40%[activator]
CC1CCc2c(sc(NC(=O)C(=O)NCc3ccco3)c2C#N)C1 (configuration not stated) | 12%
Cc1noc(NS(=O)(=O)c2ccc(N/C=C/C(=O)c3ccccc3)cc2)c1C | 7%
O=C(CCC(=O)N(CC(=O)NC1CCCCC1)Cc1cccs1)Nc1nccs1 | -11%
O=c1[nH]c(SCc2ccc(Cl)cc2)nc2ccccc12 | -13%
CC1CCCN(C(=O)C2CCN(c3ncnc4c3nc3n4CCCCC3)CC2)C1 (configuration not stated) | ?
COc1ccccc1NC(=O)C(C)Sc1nnc2ccc3ccccc3n12 (configuration not stated) | 7%

Reprinted from the part before: 2 entries, followed by the next part.
SMILES | VDR inhibitor
CC1CCCN(C(=O)C2CCN(c3ncnc4c3nc3n4CCCCC3)CC2)C1 (configuration not stated) | ?
COc1ccccc1NC(=O)C(C)Sc1nnc2ccc3ccccc3n12 (configuration not stated) | 7%
C/C(=C1/SC(N2CCOCC2)=NC1=O)c1ccc(Cl)cc1 | 7%
COc1ccc(OC)c(N=C(N)N=C(N)N)c1 | 3%
NC(=O)[C@@H]1CC2(CC(c3cccc(NC(=O)[C@H]4CCC(=O)N4)c3)=NO2)CN1C(=O)c1ccc(Cl)cc1 (some centres not stated) | 6%
Cn1nnnc1SCC(=O)N1c2ccccc2Sc2ccc(Cl)cc21 | 5%
O=C(N1CCOCC1)N1CCN(c2ccc(F)cc2)CC1 | 19%
COc1ccc(Nc2ncnc3c2cnn3-c2cc(Cl)ccc2C)cc1OC | 20%
CN(C(=O)CSc1nc2ccccc2n1Cc1cccc(C(F)(F)F)c1)c1ccccc1 | -1%
CC1CC(C)CN(C(=O)c2cccc(NC(=O)CC3SC(N4CCCCC4)=NC3=O)c2)C1 (configuration not stated) | -11%
O=C1C2C3C=CC(C3)C2C(=O)N1c1cccc2cccnc12 (configuration not stated) | 1%
CC(NCC(=O)NCCc1ccc(S(N)(=O)=O)cc1)c1ccc(F)cc1 (configuration not stated) | 0%
COc1c(C=O)c(O)cc2c1C(=O)c1ccccc1C2=O | 7.1µM*
COc1ccc(/C=N/Nc2nc3ccccc3o2)cc1OC | -5%
CNS(=O)(=O)c1cccc(C(=O)NCC(c2cccs2)N2CCOCC2)c1 (configuration not stated) | -12%
CCC(=O)Nc1cc(C(=O)OCC(=O)c2ccc(Cl)cc2Cl)ccc1C | 1%
COc1ccc(C(=O)Nc2ccc(C)c(S(=O)(=O)N3CCCCCC3)c2)cc1 | -3%
CC1CCN(C(=O)CSc2nnc(-c3ccccc3F)o2)CC1 | 2%
C=CCN1c2ccccc2[C@]23C[C@@H](C(=O)OC)N(C(=O)C4CCC4)C2=NC(C(=O)OC)=C(C(=O)OC)[C@H]13 | 5%
COc1cccc(NC(=O)CN2CCc3ccccc3C2)c1 | -1%
CCc1cccc(NC(=O)Cn2c(=O)n(CCC(=O)NCc3ccccc3Cl)c(=O)c3sccc32)c1 | -4%
O=C(Cn1nc(-c2ccccc2)ccc1=O)Nc1ccc(NC(=O)c2ccccn2)cc1 | -5%
Nc1nc(SCC(=O)NCc2ccccc2)n[nH]1 | 9%
CCOC(=O)N1CCN(C2CC(=O)N(c3ccc(C)cc3)C2=O)CC1 (configuration not stated) | 8%
CCN(CC(=O)Nc1ccccc1C(F)(F)F)C(=O)CN1C(=O)NC(C)(c2ccccc2)C1=O (configuration not stated) | -15%
COc1ccc(C(=O)n2c(C)c(CCO)c(=O)n2C)cc1 | -4%
CCCCCCn1c(=O)c(Cc2ccccc2)c(O)c2ccccc21 | -10%
Following part
SMILES | VDR inhibitor
CC(C)(C)CC(C)(C)NC(=O)c1ccccc1 | -5%
Cc1ccc(S(=O)(=O)N2CCN(C(=O)c3cccc(F)c3)CC2)cc1 | -2%
O=S(=O)(NCCN1CCOCC1)c1cccs1 | -11%
COc1cccc(/C=N/NC(=O)CSc2ccccc2C)c1OC | ?
CCN(CC)CCCNC(=O)c1cc(Nc2ccc(OC)cc2OC)nc2ccccc12 | -11%
O=C(O)c1cc(NN=C2c3ccccc3-c3ccccc32)ccc1Cl | -7%
COc1ccc(C(C)(C)C)cc1NC(=O)COC(=O)c1ccc([N+](=O)[O-])o1 | -27%
CC(C)c1ccc(NC(=O)c2cc3c(=O)oc4ccccc4c3s2)cc1 | -4%
Cc1cccc(N2CCN(C(=O)C(Cc3ccccc3)NC(N)=O)CC2)c1C (configuration not stated) | -11%
Cc1cc(C)cc(NC(=O)c2cccc(NC(=O)c3ccco3)c2)c1 | -13%
COc1ccc(OC)c(CCNC(=O)CCCn2c(=O)c3cccn3c3ccccc32)c1 | 8%
Cc1cccc(-c2nc3c(c(SCC(=O)N4CCCC4)n2)COC(C)(C)C3)c1 | 4%
O=C1CC(NS(=O)(=O)c2ccc3ccccc3c2)CN1c1ccccc1 (configuration not stated) | 11%
CC(C)[C@H](NC(=O)N1CCn2c1nc1ccccc12)C(=O)NC1CC1 | -4%
Cc1cc2nc(SCCOC(=O)Nc3ccccc3)nc(C)c2cc1C | -10%
CC1(C(=O)O)CCC(C(=O)Nc2ccccc2)C1(C)C (configuration not stated) | 3%
CCN=C1SC(C(=O)Nc2ccc(OCC)cc2)CC(=O)N1CC (configuration not stated) | 9%
CC1(C(=O)NC2CCCCCCC2)CC1(Cl)Cl (configuration not stated) | 9%
CC(C)c1cccc(C(C)C)c1NC(=O)CNCc1ccccc1F | 6%
CCN(CC)C(=O)c1cc2c(=O)n3ccccc3nc2s1 | -11%
CC(=O)c1ccc(S(=O)(=O)NCCC(=O)NC(C)c2ccncc2)cc1 (configuration not stated) | 1%
Cc1c(C(=O)NC2CCCCC2C)oc2ccccc12 (configuration not stated) | 6%
Cc1cccc(-n2ncc3c(Nc4ccc(C)c(Cl)c4)ncnc32)c1 | 12%
COc1cc(OC)c(NS(=O)(=O)c2c(C(=O)N3CCCCCC3)c(C)n(C)c2C)cc1Cl | -7%
CN(C)/C=N/c1nc2nccc(-c3cccs3)n2n1 | -2%
Additional structures:
SMILES | VDR inhibitor
CCn1c(SCC(=O)Nc2ccc(N(C)C)cc2)nnc1C1CC1 | -19%
Cc1ccc(S(=O)(=O)NC2CCCCCC2)cc1C(N)=O | 5%
Cc1cccc(-c2nc3scc(CCNS(=O)(=O)c4ccc(Oc5ccccc5)cc4)n3n2)c1 | 9%
Cc1ccc(C)c2[nH]c(=O)c(CN(Cc3cccnc3)C(=S)NCc3ccco3)cc12 | ?
O=c1nc(Nc2ccc(Br)cc2)sc2ccc([N+](=O)[O-])cc12 | 8%
O=C(CCCc1nc2ccccc2s1)NCc1ccccc1 | 3%
COc1cc(SC)ccc1C(=O)NCCN1CCOCC1 | -10%
COc1ccccc1NC(=O)Cn1c(=O)n(Cc2ccccc2)c(=O)c2ccccc21 | -1%
COc1ccc(C(=O)N2N=C3CC(C)(C)OCC3C2c2ccccc2)cc1 (configuration not stated) | -28%
Cn1nnnc1SCC(=O)Nc1ccccc1Cl | 1%
COc1cccc(CN(C)CC(=O)Nc2ccccc2N2CCOCC2)c1OC | 14%
O=C1CC(Sc2nnnn2C2CCCCC2)C(=O)N1c1ccccc1 (configuration not stated) | 5%
Cc1ccc(S(=O)(=O)N2CCN(C(=O)C3CSC4(C)CCC(=O)N34)CC2)cc1C (configuration not stated) | 7%
C=CCc1cc(C)ccc1OCCOCCn1ccnc1 | -2%
COc1ccccc1Nc1n[nH]c(=S)s1 | ?
O=C1[C@@H](c2ccccc2)[C@@H](c2ccccc2)N1c1cccnc1 | 0%
COc1ccccc1NC(=O)c1cc(C)nc2ccccc12 | 3%
COCCCNC(=O)C1CC(=O)N(C2CCCC2)C1 (configuration not stated) | -8%
CCn1c(CNS(=O)(=O)c2ccc(Cl)cc2)n[nH]c1=S | -6%
CCCCN(Cc1nc2ccccc2c(=O)[nH]1)C(=O)CN1C(=O)NC2(CCCCC2)C1=O | -3%
Cc1nc2cc(-c3ccc(Cl)cc3)nn2c(C)c1CCC(=O)NC(C)c1ccc2c(c1)OCCO2 (configuration not stated) | -15%
CCOC(=O)/C(=C\C=C\N1CCOCC1)C(C)=O | 7%
CC(=O)c1ccc(NC(=O)C(C)OC(=O)c2ccc3c(c2)nc(C)n3-c2ccccc2)cc1 (configuration not stated) | 8%
COc1ccc(NC(=O)COc2ccc(S(=O)(=O)N3CCOCC3)cc2C)cc1OC | -6%
O=C(COc1ccc(-n2cnnn2)cc1)N1CCN(c2ccc(F)cc2)CC1 | 2%
Carrying on.
SMILES | VDR inhibitor
Cc1cc2[nH]c(=S)[nH]c2cc1C | -12%
CCCC(=O)Nc1nc(C(=O)OCC)cs1 | 7%
Oc1ccc(/C=N/N(c2ccccc2)c2ccccc2)cc1O | -7%
CCOc1ccc(NC(=O)c2cc3c(=O)n4cccc(C)c4nc3s2)cc1 | 3%
CC(C)Oc1ccc(CNC(=O)Cn2c(=O)oc3ccccc32)cc1 | 24%&1%
O=c1c2c3c(sc2nc2sc(C4CC4)nn12)CCCC3 | 6%
Cn1c2ccccc2c(=O)c2c(=O)n(C3CCCCCC3)c(C3CCCCC3)nc21 | -19%
COc1cc(-c2nnc(SCC(=O)Nc3ccc(F)c(Cl)c3)o2)cc(OC)c1OC | 12%
COc1ccc(NS(=O)(=O)/C=C/c2ccccc2)cc1 | 1%
O=C(CSc1ncn[nH]1)NCc1ccc2c(c1)OCO2 | -8%
CCc1nn(C(C)C(=O)N2CCN(c3ccccc3)CC2)c(=O)c2cc3occc3n12 (configuration not stated) | 6%&11%
Cc1ccc(S(=O)(=O)NC2=NCN(C)CN2)cc1[N+](=O)[O-] | 3%
CCn1nnc2sc3c(c2c1=O)CCC(C)C3 (configuration not stated) | -6%
CCOC(=O)N/N=C/c1ccc(OCCSc2ccc(Cl)cc2)c(OCC)c1 | 0%
Cc1ccc(NC(=S)N2CCCC2)cc1Cl | -15%
O=C(NCC(O)CO)c1ccc2[nH]c3ccccc3c2c1 (configuration not stated) | 9%
COC(=O)c1cc(NC(=O)CC2SCCNC2=O)cc(C(=O)OC)c1 (configuration not stated) | 10%
Cc1cc(C(=O)COC(=O)c2n[nH]c3ccccc23)c(C)n1C | 2%
CCN(Cc1nc2ccccc2c(=O)[nH]1)C(=O)c1cccc(NC(=O)c2cccs2)c1 | 4%

As a short view, some entries already given.
SMILES | VDR inhibitor
Cc1cc(C(=O)COC(=O)c2n[nH]c3ccccc23)c(C)n1C | 2%
CCN(Cc1nc2ccccc2c(=O)[nH]1)C(=O)c1cccc(NC(=O)c2cccs2)c1 | 4%

Among those listed so far, these contain a thiophene ring, fused or not:
SMILES | VDR inhibitor
C#CCn1c(-c2cccs2)nc2ccccc21 | 40%[activator]
CC1CCc2c(sc(NC(=O)C(=O)NCc3ccco3)c2C#N)C1 (configuration not stated) | 12%
O=C(CCC(=O)N(CC(=O)NC1CCCCC1)Cc1cccs1)Nc1nccs1 | -11%
CNS(=O)(=O)c1cccc(C(=O)NCC(c2cccs2)N2CCOCC2)c1 (configuration not stated) | -12%
CCc1cccc(NC(=O)Cn2c(=O)n(CCC(=O)NCc3ccccc3Cl)c(=O)c3sccc32)c1 | -4%
O=S(=O)(NCCN1CCOCC1)c1cccs1 | -11%
CC(C)c1ccc(NC(=O)c2cc3c(=O)oc4ccccc4c3s2)cc1 | -4%
CCN(CC)C(=O)c1cc2c(=O)n3ccccc3nc2s1 | -11%
CN(C)/C=N/c1nc2nccc(-c3cccs3)n2n1 | -2%
CCOc1ccc(NC(=O)c2cc3c(=O)n4cccc(C)c4nc3s2)cc1 | 3%
O=c1c2c3c(sc2nc2sc(C4CC4)nn12)CCCC3 | 6%
CCn1nnc2sc3c(c2c1=O)CCC(C)C3 (configuration not stated) | -6%
CCN(Cc1nc2ccccc2c(=O)[nH]1)C(=O)c1cccc(NC(=O)c2cccs2)c1 | 4%

An excerpt, so the mix of outcomes need not match the whole.
